# FGF22 binding: FGF22 (human) thermal shift binding | Q9HCT0 | recombinant FGF22 thermal shift, SYPRO orange fluorescence; percent of sucrose octasulfate shift, DMSO zero | calls only at 9.99 µM | actives 1.5% (n = 340,000) | AID 651658;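 active = melting point raised past a set limit in the mean and every replicate; three in four hits are not shown here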
# Target sequence (Q9HCT0 whole entry, looked up): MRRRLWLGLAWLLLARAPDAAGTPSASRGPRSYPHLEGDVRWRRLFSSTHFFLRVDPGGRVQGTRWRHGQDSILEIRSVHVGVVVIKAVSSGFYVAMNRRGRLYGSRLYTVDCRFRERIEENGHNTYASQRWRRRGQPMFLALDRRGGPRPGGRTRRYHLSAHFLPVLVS
# Ecoli rRNA inh: selective bacterial rRNA inhibition in E. coli; actives 1.6% (n = 350,000); E. coli WT GFP vs humanized-ribosome RFP mutants, fluorescence, 24 h; hits give low values; DMSO median 0, no signal -100; GFP signal change (wild-type ribosome), % (concentration not given with the values);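 active = significant combined selectivity score with lowered wild-type GFP, culture density cut under 30%, mutant RFP and density less affected; inactive = any of these conditions unmet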; note: one replicate is shown; some compounds called inactive have numbers as strong as hits
# Ecoli rRNA inh OD600: further read-out of Ecoli rRNA inh, marked with its call; OD600 change, %; measured here: OD600 growth;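 optical density of the mix in the first replicate; 0 = DMSO median and -100 = no signal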
# Ecoli rRNA inh RFP: second read-out of Ecoli rRNA inh, no call of its own (marks repeat the call); RFP signal change, %; measured here: RFP humanized mutant strains;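 first replicate; 0 = DMSO median and -100 = no signal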
# * marks the source's active call; other numbers are inactive results; i = inactive.
FGF22 binding | Ecoli rRNA inh | Ecoli rRNA inh OD600 | Ecoli rRNA inh RFP | structure
i | 1 | 5 | -0.9 | C[C@H]1CN([C@@H](C)CO)C(=O)c2cc(NC(=O)CCCCCC(=O)Nc3ccccc3N)ccc2O[C@H]1CN(C)C(=O)Nc1ccc(C(F)(F)F)cc1
i | -4 | 0 | 0.3 | Cc1noc(C)c1NC(=O)N(C)C[C@@H]1Oc2ccc(NC(=O)Nc3ccc(F)cc3)cc2CC(=O)N([C@@H](C)CO)C[C@@H]1C
i | 4 | -2 | -3.2 | COc1ccccc1S(=O)(=O)N(C)C[C@@H]1Oc2cc(/C=C/c3ccccc3)ccc2S(=O)(=O)N([C@H](C)CO)C[C@@H]1C
i | 4 | 5 | 0.0 | COC(=O)[C@]12C[C@H](CC(=O)NCc3cccc(C(F)(F)F)c3)C(=O)N(CCc3ccc(OC)c(OC)c3)C1=C[C@H](C(C)(C)C)O[C@@H]2C
i | 7 | 3 | -2.7 | Cc1ccc(S(=O)(=O)Nc2ccc3c(c2)C(=O)N([C@H](C)CO)C[C@H](C)[C@H](CN(C)C(=O)Nc2ccc(C(F)(F)F)cc2)OCCCC[C@H](C)O3)cc1
i | -32 | -67 | 9.0 | O=C(Nc1ccc(C(F)(F)F)cc1)Nc1ccc2c(c1)[C@@H]1C[C@@H](CC(=O)N3CCc4ccccc4C3)O[C@H](CO)[C@@H]1O2
i | 1 | -29 | 18 | C[C@H](CO)N1C[C@H](C)[C@H](CN(C)C(=O)C2CC2)Oc2cc(C#CC3CCCC3)ccc2S1(=O)=O
i | 4 | 12 | -0.8 | C[C@@H]1CN([C@H](C)CO)C(=O)c2cc(NS(=O)(=O)c3ccc(Cl)cc3)ccc2O[C@@H](C)CCCCO[C@@H]1CN(C)Cc1ccc(Cl)c(Cl)c1

# Other results:
FGF22 binding | Ecoli rRNA inh | Ecoli rRNA inh OD600 | Ecoli rRNA inh RFP | structure
i | -5 | -19 | 6.9 | C/C=C/c1ccc([C@H]2[C@@H](CO)N[C@@H]2CN(C(=O)c2ccccc2F)C(C)C)cc1
i | 0 | -6 | -2.0 | CCC(=O)N(C)C[C@H]1Oc2ncc(C#CCC(C)C)cc2C(=O)N([C@@H](C)CO)C[C@@H]1C
i | -5 | -8 | -0.1 | Cc1noc(C)c1NC(=O)Nc1cccc2c1O[C@@H](CN(C)S(=O)(=O)c1ccc(F)cc1)[C@@H](C)CN([C@@H](C)CO)C2=O
i | -5 | 11 | 2.0 | C[C@H](CO)N1C[C@H](C)[C@H](CN(C)C(=O)c2cnccn2)Oc2ncc(/C=C/c3ccccc3)cc2C1=O
i | 3 | 10 | -1.4 | C[C@H](CO)N1C[C@H](C)[C@H](CN(C)S(C)(=O)=O)Oc2ncc(-c3cccnc3)cc2C1=O
i | 2 | 2 | -3.9 | C[C@H](CO)N1C[C@H](C)[C@@H](CN(C)Cc2ccccn2)Oc2ncc(C3=CCCC3)cc2C1=O
i | -2 | -1 | -1.7 | CCNC(=O)Nc1ccc2c(c1)C(=O)N(C)[C@H]1CC[C@@H](CC(=O)NCc3cccc(F)c3)O[C@H]1CO2
i | 1 | -5 | 1.3 | CCCN(C)C[C@@H]1OCc2cnnn2CCCC(=O)N([C@@H](C)CO)C[C@@H]1C

# 11 entries from above in another layout:
molecule	FGF22 binding	Ecoli rRNA inh	Ecoli rRNA inh OD600	Ecoli rRNA inh RFP
C[C@H]1CN([C@@H](C)CO)C(=O)c2cc(NC(=O)CCCCCC(=O)Nc3ccccc3N)ccc2O[C@H]1CN(C)C(=O)Nc1ccc(C(F)(F)F)cc1	i	1	5	-0.9
Cc1noc(C)c1NC(=O)N(C)C[C@@H]1Oc2ccc(NC(=O)Nc3ccc(F)cc3)cc2CC(=O)N([C@@H](C)CO)C[C@@H]1C	i	-4	0	0.3
COc1ccccc1S(=O)(=O)N(C)C[C@@H]1Oc2cc(/C=C/c3ccccc3)ccc2S(=O)(=O)N([C@H](C)CO)C[C@@H]1C	i	4	-2	-3.2
COC(=O)[C@]12C[C@H](CC(=O)NCc3cccc(C(F)(F)F)c3)C(=O)N(CCc3ccc(OC)c(OC)c3)C1=C[C@H](C(C)(C)C)O[C@@H]2C	i	4	5	0.0
Cc1ccc(S(=O)(=O)Nc2ccc3c(c2)C(=O)N([C@H](C)CO)C[C@H](C)[C@H](CN(C)C(=O)Nc2ccc(C(F)(F)F)cc2)OCCCC[C@H](C)O3)cc1	i	7	3	-2.7
O=C(Nc1ccc(C(F)(F)F)cc1)Nc1ccc2c(c1)[C@@H]1C[C@@H](CC(=O)N3CCc4ccccc4C3)O[C@H](CO)[C@@H]1O2	i	-32	-67	9.0
C[C@H](CO)N1C[C@H](C)[C@H](CN(C)C(=O)C2CC2)Oc2cc(C#CC3CCCC3)ccc2S1(=O)=O	i	1	-29	18
C[C@@H]1CN([C@H](C)CO)C(=O)c2cc(NS(=O)(=O)c3ccc(Cl)cc3)ccc2O[C@@H](C)CCCCO[C@@H]1CN(C)Cc1ccc(Cl)c(Cl)c1	i	4	12	-0.8
C/C=C/c1ccc([C@H]2[C@@H](CO)N[C@@H]2CN(C(=O)c2ccccc2F)C(C)C)cc1	i	-5	-19	6.9
CCC(=O)N(C)C[C@H]1Oc2ncc(C#CCC(C)C)cc2C(=O)N([C@@H](C)CO)C[C@@H]1C	i	0	-6	-2.0
Cc1noc(C)c1NC(=O)Nc1cccc2c1O[C@@H](CN(C)S(=O)(=O)c1ccc(F)cc1)[C@@H](C)CN([C@@H](C)CO)C2=O	i	-5	-8	-0.1

# Following part:
FGF22 binding | Ecoli rRNA inh | Ecoli rRNA inh OD600 | Ecoli rRNA inh RFP | structure
i | 3 | 0 | -2.6 | C[C@H](CO)N1C[C@H](C)[C@@H](CN(C)C(=O)Nc2ccc3c(c2)OCO3)Oc2ccc(NC(=O)c3ccncc3)cc2C1=O
i | 3 | -5 | 9.0 | C[C@@H]1CN([C@@H](C)CO)C(=O)c2cc(NC(=O)Nc3ccc(F)cc3)ccc2O[C@@H](C)CCCCO[C@@H]1CN(C)Cc1ccc2c(c1)OCO2
i | 4 | 4 | 0.3 | COCC(=O)N(C)C[C@H]1Oc2ncc(C#Cc3ccncc3)cc2C(=O)N([C@H](C)CO)C[C@@H]1C
i | -5 | -18 | 3.9 | COc1ccc(S(=O)(=O)N[C@@H]2CC[C@@H](CCn3cc(-c4ccccc4F)nn3)O[C@H]2CO)cc1
i | -7 | -14 | 0.2 | C[C@@H]1CN([C@H](C)CO)C(=O)c2cc(NC(=O)NC3CCCCC3)ccc2O[C@H]1CN(C)Cc1ccc(C(F)(F)F)cc1
i | 9 | 6 | 4.6 | NC(Cc1ccc(O)cc1)C(=O)NN=Cc1ccccc1Cl (stereo not drawn)
i | -2 | -5 | 2.5 | CCCNC(=O)N1CC2(CN(S(=O)(=O)c3ccc(OC)cc3)C2)c2c(n(C)c3cc(OC)ccc23)[C@@H]1CO
i | 0 | -5 | 1.0 | C[C@@H]1CN([C@H](C)CO)C(=O)c2cc(NC(=O)Nc3ccc(F)cc3)ccc2O[C@@H]1CN(C)C(=O)Nc1ccccc1

# The closing 2 compounds of the section above open the next one:
FGF22 binding | Ecoli rRNA inh | Ecoli rRNA inh OD600 | Ecoli rRNA inh RFP | structure
i | -2 | -5 | 2.5 | CCCNC(=O)N1CC2(CN(S(=O)(=O)c3ccc(OC)cc3)C2)c2c(n(C)c3cc(OC)ccc23)[C@@H]1CO
i | 0 | -5 | 1.0 | C[C@@H]1CN([C@H](C)CO)C(=O)c2cc(NC(=O)Nc3ccc(F)cc3)ccc2O[C@@H]1CN(C)C(=O)Nc1ccccc1
i | -2 | -29 | -0.4 | CN1C(=O)c2cc(NC(=O)Cc3ccccc3)ccc2OC[C@@H]2O[C@H](CC(=O)NCc3ccc(Cl)cc3)CC[C@@H]21
i | -6 | -2 | -3.4 | C[C@@H]1CN([C@H](C)CO)C(=O)c2cc(C#Cc3cccnc3)cnc2O[C@H]1CN(C)S(=O)(=O)c1ccccc1F
i | -2 | -12 | 1.9 | C[C@@H]1CN([C@H](C)CO)C(=O)c2cc(NC(=O)C3CCCCC3)ccc2O[C@@H](C)CCCCO[C@H]1CN(C)S(=O)(=O)c1cccs1
i | -2 | 1 | -1.1 | C[C@H]1CN([C@@H](C)CO)C(=O)c2cccc(NC(=O)c3cnccn3)c2O[C@H]1CN(C)CC1CCCCC1
i | -5 | 0 | -6.7 | C[C@@H]1CN([C@H](C)CO)C(=O)c2cccc(NC(=O)C3CCCCC3)c2O[C@@H]1CN(C)C(=O)Nc1ccc(C(F)(F)F)cc1
i | 5 | 4 | 2.6 | C[C@H](O)C#Cc1ccc([C@@H]2[C@H](CO)N3CCCCN(S(=O)(=O)Cc4ccccc4)C[C@@H]23)cc1
i | -2 | 0 | -0.1 | Cc1ccc(S(=O)(=O)Nc2ccc3c(c2)C(=O)N([C@H](C)CO)C[C@H](C)[C@H](CN(C)C(=O)CCCN(C)C)OCCCC[C@H](C)O3)cc1
i | 2 | 4 | -1.0 | CC(=O)N1[C@@H]2c3cccc(=O)n3C[C@@H]2[C@@H](CO)[C@@H]1C(=O)NC1CCCCC1

# More records
FGF22 binding | Ecoli rRNA inh | Ecoli rRNA inh OD600 | Ecoli rRNA inh RFP | structure
i | -6 | -5 | 0.1 | COc1ccc(C2CC(=O)C(c3cccc(C)c3)=CN2Cc2ccccc2)cc1 (stereo not drawn)
i | 1 | 3 | -2.7 | C[C@@H]1CCCCO[C@@H](CN(C)Cc2ccc(Cl)c(Cl)c2)[C@H](C)CN([C@H](C)CO)C(=O)c2cc(NC(=O)NC3CCCCC3)ccc2O1
i | 4 | 10 | 0.0 | CCNC(=O)C[C@H]1CC[C@H]2[C@@H](COC[C@@H](O)CN2C(=O)Nc2ccc3c(c2)OCO3)O1
i | -2 | -8 | -2.0 | CN1[C@@H]2c3ccc(C4=CCCCC4)c(=O)n3C[C@H]1[C@H](CO)[C@H]2C(=O)NCc1cccc(F)c1

# Screening results from PubChem.

# These rows are one share of the data; count on the stated rates, not on these rows.
